Source: PubChem
gsp antag – gsp mutant antagonism. gsp-mutant cells, cAMP HTRF, 30 min; control for the full effect not named in the record. Potency, µM (highest dose often 76.9 µM), for the others: at the highest dose activity change, negative = inhibition, hits mostly inhibitors. 0.4% of 340,000 active. AID 624288; active = falling curve of any shape with a large fitted effect; inconclusive = falling curve, mostly with a smaller effect; inactive = flat or rising curve; cell line not stated here;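 also: intracellular cAMP measured with PDE inhibitor Ro 20-1724 present during compound exposure; potency is read from the fitted curve at half-maximal effect; % is scaled to controls: 0 for no effect and ±100 for the full control effect; nearly all actives have a fitted effect of over 65% in size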
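Cells in G418 medium, seeded 16-24 h, 37C; buffer exchange to DPBS + 1 mM CaCl2, 0.5 mM MgCl2, 0.05% BSA; cpds in DMSO + […] (300 uM stock), 30 min 37C; HTRF cAMP detection.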
CtBP-E1A blk – inhibitors of CtBP/E1A interaction | AlphaScreen GST-E1A/His-CtBP binding, 1536-well; hits give low values; control for the full effect not named in the record | activity change, % (test concentration not listed) | 0.49% of 340,000 active | AID 651724; in the data active means activity change below about -65%; inconclusive means about -30% to -65%; inactive means above about -30%; also: % is scaled to controls: 0 for no effect and ±100 for the full control effect; compound concentration not given in the record
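Steps: dispense buffer (Tris pH 8.0, NaCl 300 mM, TCEP 1 mM, BSA, Tween 20); add 5X protein mix (GST-E1A, His-CtBP, 125 nM each); pin 23 nL compound; 2 h at 37 °C, dark; add 5X beads (50 ug/mL); 1 h; read.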
Six1-Eya2 inh – Six1/Eya2 interaction inhibition. Q15475+O00167. AlphaScreen GST-Six1/His-Eya2 binding, biochemical; hits give low values; control for the full effect not named in the record. activity change, % (concentration not given with the values). 0.56% of 360,000 active; in the data active = activity change below about -65%; inconclusive = about -30% to -65%; inactive = above about -30%; also: % is scaled to controls: 0 for no effect and ±100 for the full control effect
Target sequence (O00167 whole entry, looked up): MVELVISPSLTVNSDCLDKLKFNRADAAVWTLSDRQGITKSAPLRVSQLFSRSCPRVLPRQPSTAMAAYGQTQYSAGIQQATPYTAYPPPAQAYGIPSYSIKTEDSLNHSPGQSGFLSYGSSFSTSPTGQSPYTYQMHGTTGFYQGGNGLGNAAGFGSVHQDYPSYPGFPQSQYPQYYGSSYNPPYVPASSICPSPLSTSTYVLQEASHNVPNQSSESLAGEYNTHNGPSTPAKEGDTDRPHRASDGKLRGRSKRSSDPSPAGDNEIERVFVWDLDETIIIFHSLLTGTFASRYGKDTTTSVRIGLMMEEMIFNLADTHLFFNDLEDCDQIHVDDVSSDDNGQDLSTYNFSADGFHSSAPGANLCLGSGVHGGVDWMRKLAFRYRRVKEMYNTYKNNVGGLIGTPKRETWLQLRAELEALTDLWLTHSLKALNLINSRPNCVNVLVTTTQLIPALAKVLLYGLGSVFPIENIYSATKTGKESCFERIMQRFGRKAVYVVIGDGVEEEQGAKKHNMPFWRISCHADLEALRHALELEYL
Target sequence (Q15475 whole entry, looked up): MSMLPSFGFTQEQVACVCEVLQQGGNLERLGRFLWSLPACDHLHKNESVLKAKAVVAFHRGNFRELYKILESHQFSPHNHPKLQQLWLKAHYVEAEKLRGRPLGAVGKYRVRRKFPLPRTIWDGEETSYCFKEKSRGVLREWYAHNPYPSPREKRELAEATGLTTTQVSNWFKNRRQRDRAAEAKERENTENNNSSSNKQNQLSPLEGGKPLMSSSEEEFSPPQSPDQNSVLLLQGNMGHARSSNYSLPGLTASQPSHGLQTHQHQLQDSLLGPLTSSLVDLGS
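Homogeneous AlphaScreen proximity assay pairing GST-Six1 with His-tagged Eya2 (added as 5X mix: 250 nM and 500 nM) in 50 mM Tris pH 8.0, 300 mM NaCl, 1 mM TCEP. Glutathione donor and nickel acceptor beads; 1 h, 37 °C, dark.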
D2 agonist – human D2 receptor agonism in beta-arrestin assay; P14416; DiscoveRx PathHunter D2 beta-arrestin, luminescence, 90 min; 100% = 57 uM dopamine signal; activation, % (test concentration not listed); 0.084% of 360,000 active; AID 624465; in the data active = activation above about 40%; inconclusive = about 15% to 40%; inactive = below about 15%; also: compound concentration not given in the record; the text of the record calls up to 30% inactive
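DiscoveRx PathHunter D2 beta-arrestin cells (2,100/well) attached overnight, then compound-stimulated 90 min at 37 C in HBSS/10 mM HEPES/0.1% Tween-20 buffer; beta-galactosidase complementation read by luminescence after 1 h at ambient temperature. Dopamine 57 uM final (EC100) as control.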
gsp ag – gsp mutant agonism. gsp mutant cells, cAMP HTRF, 30 min; control for the full effect not named in the record. Potency, µM (top dose mostly 76.9 µM), for the others: at the highest dose activation (cAMP increase), hits mostly activators. 0.13% of 340,000 active; active = well fitted activation curve with a large enough effect; inconclusive = small, poorly fitted or top-dose-only effect, or another doubt; inactive = no such curve, though single readings can be large or run the other way; cell line not stated here;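 also: phosphodiesterase inhibitor Ro 20-1724 added with compounds to block cAMP breakdown; potency is read from the fitted curve at half-maximal effect; nearly all actives have a fitted effect of over 60% in size; about a fifth of the inactives were tested at one dose only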
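Cells stably selected in G418 were plated at 2000/well, grown 16-24 hr, then given compounds in DMSO with the PDE inhibitor […] (300 uM solution added) for 30 min at 37C; cAMP was read by HTRF.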
D2 PAM – human D2 receptor positive allosteric modulation; DiscoveRx D2 beta-arrestin cells, luminescence, 90 min; 100% = 57 uM dopamine signal; P14416; potentiation, % (concentration not given with the values); AID 624464; 0.23% of 360,000 active; active = potentiation of 50% or more; inconclusive = 30% to 50%; inactive = 30% or less;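 also: compound concentration not given in the record; tested on top of an EC20 dose of dopamine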
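PathHunter D2 cells, attached overnight at 37 deg C, received compound in DMSO plus dopamine at EC20 (50 nM final) for 90 min at 37 deg C. Beta-arrestin recruitment was read as luminescence after 1 h with detection reagent at ambient temperature.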
* marks the source's active call; other numbers are inactive results; ? = inconclusive; · = not tested or not shown; [ ] = another dose, or the depositor's remark. Rows are unselected, and some 1.4% of all compounds hit somewhere here.

SMILES | gsp antag | CtBP-E1A blk | Six1-Eya2 inh | D2 agonist | gsp ag | D2 PAM
O=C(CSc1nccc(=O)[nH]1)N1N=C2/C(=C/c3ccco3)CCCC2C1c1ccco1 (centres undefined) | -33% | 1 | -13 | -0.2 | -6%[15.4 µM] | 3
COC(=O)c1cc(NC(=O)CN2CCN(C(C)=O)CC2)cc(C(=O)OC)c1 | -11% | -5 | -15 | -9.6 | 5%[15.4 µM] | -4
Cc1ccc(N2C(=O)N(CC(=O)Nc3ccc(C)c(C)c3)C(=O)C2C)cc1 (centres undefined) | 3% | -2 | 3 | -3.5 | 4% | 2
CN1CCN(c2ccc(CNC(=O)C3(C)Cc4c(-c5ccccc5)ccnc4O3)cc2)CC1 (centres undefined) | · | -20 | -12 | -6.2 | · | -19
Cc1ccc2c(c1)N(C(=O)CCC(=O)N1CCc3ccccc3C1)CCO2 | -7% | -1 | -3 | -3.1 | -3% | -16
CC(=O)NC1(C(F)(F)F)C(=O)NC(C)=C1C#N (centres undefined) | 13% | -5 | -12 | -3.5 | 11% | 6
Cc1ccccc1-n1c(O)c(/C=C/C=Nc2ccccc2)c(=O)[nH]c1=O | 3% | 1 | 2 | -0.2 | -28% | -13
CCN(C(=O)CSc1cc(C)c2ccc(OC)cc2n1)C1CCS(=O)(=O)C1 (centres undefined) | -2% | -5 | 1 | -2.2 | -45%[inhibitor] | -9
COc1ccc(Cl)c(NCCC(=O)O)c1 | -16% | -1 | 0 | -1.1 | ? | -12
O=C(Nc1ccccc1F)c1ccc2c(c1)OCO2 | 0% | 5 | 1 | 7.2 | -83%[inhibitor] | -1
O=C(NCCN1C(=O)S/C(=C\c2ccc(Cl)cc2)C1=O)C1=COCCO1 | 9% | 13 | 12 | 1.6 | -31%[inhibitor] | 5
COc1ccc(NC(=O)N(C)C[C@H]2Oc3ccc(NC(=O)Cc4ccccc4)cc3C(=O)N([C@H](C)CO)C[C@@H]2C)cc1 | 5% | -9 | -19 | -0.1 | -22% | -10
Cc1cc(=O)oc2c(C)c(OCC(=O)N3CCC(C(=O)O)CC3)ccc12 | 10% | 0 | -2 | -1.5 | · | -8
Cn1c(=O)c2c(nc(CN3CCOCC3)n2CCCc2ccccc2)n(C)c1=O | 9% | 4 | 3 | -2.1 | ? | -2
C=Cn1cc[n+](CC(=O)c2ccc(OC)cc2)c1 | 3% | -2 | 4 | -4.1 | 0%[15.4 µM] | -1
CC(=O)c1cc2c(cc1NC(=O)c1ccc(Cl)cc1)OCCO2 | 8% | 7 | -16 | -1.5 | -36%[15.4 µM] | -5
COc1ccc(NC(=O)c2ccc(S(=O)(=O)N3CCCCCC3)cc2)c(OC)c1 | -10% | -11 | -2 | 2.3 | -13%[15.4 µM] | -3
S=c1[nH]nc(C2CC2c2ccc(Cl)cc2)n1-c1ccc(Cl)cc1 (centres undefined) | -8% | -5 | -12 | 0.1 | 0% | -30
O=C(N/C(=C\c1ccc(Cl)cc1)C(=O)N1CCOCC1)c1ccco1 | 9% | -14 | -4 | -3.6 | 14% | -2
Cc1cc(C)c(S(=O)(=O)ON2C(=O)c3ccccc3C2=O)cc1C | 10% | 0 | -20 | -7.5 | 6% | -42
O=C(CNS(=O)(=O)c1cccs1)N1CCCC1 | 10% | -1 | -6 | 0.7 | 4% | -25
O=c1oc(CCCO)cc2ccccc12 | 6% | 5 | 9 | 0.1 | · | -8
CS(=O)(=O)N(CC(=O)N1CCOCC1)Cc1ccc(Cl)cc1 | 7% | 14 | 9 | 0.7 | 10% | -2
CCCN(CC(=O)Nc1ccc(F)c(F)c1F)C(=O)C1=COCCO1 | 6% | 8 | 4 | 1.1 | 1%[15.4 µM] | 0
CCCCOc1ccc(C(=O)Oc2ccc(C)nc2)cc1 | 5% | 14 | 11 | -0.5 | 6% | 0

Part of the list above, as labelled records.
> Cc1cc(C)c(S(=O)(=O)ON2C(=O)c3ccccc3C2=O)cc1C
- gsp antag: 10%
- CtBP-E1A blk: 0
- Six1-Eya2 inh: -20
- D2 agonist: -7.5
- gsp ag: 6%
- D2 PAM: -42
> O=C(CNS(=O)(=O)c1cccs1)N1CCCC1
- gsp antag: 10%
- CtBP-E1A blk: -1
- Six1-Eya2 inh: -6
- D2 agonist: 0.7
- gsp ag: 4%
- D2 PAM: -25
> O=c1oc(CCCO)cc2ccccc12
- gsp antag: 6%
- CtBP-E1A blk: 5
- Six1-Eya2 inh: 9
- D2 agonist: 0.1
- gsp ag: ·
- D2 PAM: -8
> CS(=O)(=O)N(CC(=O)N1CCOCC1)Cc1ccc(Cl)cc1
- gsp antag: 7%
- CtBP-E1A blk: 14
- Six1-Eya2 inh: 9
- D2 agonist: 0.7
- gsp ag: 10%
- D2 PAM: -2

(next part)
SMILES | gsp antag | CtBP-E1A blk | Six1-Eya2 inh | D2 agonist | gsp ag | D2 PAM
CNc1nc(NC#N)nc(SC)n1 | 9% | -10 | 0 | -2.8 | 2% | -10
CCOc1ccc(C(C(=O)NCC2CCCO2)N(Cc2cccs2)C(=O)c2snc(C(N)=O)c2N)cc1 (centres undefined) | -6% | 6 | -2 | -1.4 | -5%[15.4 µM] | 8
CC(C)(C)NC(=O)Cn1nnc(-c2ccccc2NC(=O)c2ccco2)n1 | -14% | 1 | 2 | 0.2 | 12% | 17
O=C(Nc1ccc(N2CCOCC2)cc1)C1CCN(C(=O)OCc2ccccc2)CC1 | -1% | -12 | -13 | -0.3 | -6%[15.4 µM] | -1
O=C(CCCn1c(=O)[nH]c2ccsc2c1=O)N1CCN(Cc2ccc3c(c2)OCO3)CC1 | -9% | 1 | -3 | -2.9 | 3% | -19
CCn1nc(NS(=O)(=O)c2ccc(NC(C)=O)cc2)c2cc3ccccc3nc21 | -11% | ? | -27 | -8.5 | 1% | -16
CSCC[C@H](NC(=O)C(C)(C)Oc1ccc(Cl)cc1)c1nc2ccccc2[nH]1 | 2% | · | -5 | -1.9 | -3% | 0
c1ccn2c(c1)nc1c2nc2ccccn21 | -28% | -11 | -10 | -1.6 | 29% | -2
CCN(CC)S(=O)(=O)c1ccc(N(C)Cc2cccc(OC)c2OC)nc1 | -30% | 10 | -8 | -3.0 | -3%[15.4 µM] | -9
COc1ccc2[nH]c(CN3CCN(CC=C(C)C)C(CCO)C3)c(C)c2c1 (centres undefined) | -1% | -7 | -7 | -4.8 | -13%[15.4 µM] | -14
COc1ccc2c(c1)C=C(CN1CCN(C3CCCC3)C(CCO)C1)CO2 (centres undefined) | 10% | -3 | -4 | -1.3 | -3%[15.4 µM] | -35
N#CCCN(CCC#N)c1nncs1 | 11% | 5 | -1 | -3.9 | 10% | -3
Cc1cc(C)c(-c2c(O)c3cccc4c3n(c2=O)CCC4)c(C)c1 | ? | 12 | -1 | -2.6 | 17% | -3
CCOC(=O)C1CCN(Cc2cc(=O)oc3c(C)c(C)ccc23)CC1 | ? | 1 | 0 | -2.5 | 16% | -11
COC(=O)c1c(NC(NC(=O)C(C)C)C(Cl)(Cl)Cl)sc2c1CCC2 (centres undefined) | -21% | -15 | -16 | -0.2 | 1% | -5
COc1cc(NC(=O)CSc2nnc(NC(C)C)s2)cc(OC)c1OC | -1% | -1 | -4 | 6.3 | ? | 1
CCOc1ccccc1-c1nc(-c2cccc(Br)c2)no1 | 23% | -4 | -9 | 1.2 | -5% | -2
CCC/C=C(\CCC)C(NC(=O)OCC(C)C)c1ccc(C(=O)OC)cc1 (centres undefined) | -10% | 27 | 15 | -0.5 | · | -2
Cc1noc(C)c1NC(=O)Nc1cccc2c1O[C@H](CN(C)S(=O)(=O)c1cn(C)cn1)[C@@H](C)CN([C@H](C)CO)C2=O | -9% | -21 | 2 | -0.9 | · | ·
Clc1cccc(CNc2nc(-c3cccnc3)nc3ccccc23)c1 | · | 23 | -25 | 1.0 | 17%[15.4 µM] | -9
CCOC(=O)CSc1nc(C)c(C(=O)OCC)s1 | -8% | 11 | 7 | -0.4 | ? | 0
N#CN1C2CCC1CC(O)(c1ccccc1)C2 (centres undefined) | · | 6 | 2 | -5.3 | · | -1
O=C(c1nc2nc(-c3ccccc3)cc(C(F)(F)F)n2n1)N1CCCCC1 | 1% | 3 | -1 | -0.9 | 0% | 4
Cc1ccc(S(=O)(=O)N2CCOCC2)cc1NC(=O)COC(=O)c1ccc2c(c1)OCO2 | 4% | -2 | 9 | 2.2 | ? | -8
COc1ccc(Cl)cc1N(CC(=O)N1CCCC1)S(C)(=O)=O | 9% | 46 | 16 | -1.3 | -4% | 0

3 compounds from above, sorted by molecular weight, lowest first:
SMILES | gsp antag | CtBP-E1A blk | Six1-Eya2 inh | D2 agonist | gsp ag | D2 PAM
CNc1nc(NC#N)nc(SC)n1 | 9% | -10 | 0 | -2.8 | 2% | -10
COC(=O)c1c(NC(NC(=O)C(C)C)C(Cl)(Cl)Cl)sc2c1CCC2 (centres undefined) | -21% | -15 | -16 | -0.2 | 1% | -5
O=C(Nc1ccc(N2CCOCC2)cc1)C1CCN(C(=O)OCc2ccccc2)CC1 | -1% | -12 | -13 | -0.3 | -6%[15.4 µM] | -1

Single entries from the list:
`CC(C)(C)NC(=O)Cn1nnc(-c2ccccc2NC(=O)c2ccco2)n1` – Six1-Eya2 inh: 2
`Cc1cc(C)c(S(=O)(=O)ON2C(=O)c3ccccc3C2=O)cc1C` – gsp antag: 10%
